Screening results from PubChem.
VDR inhibitor – Inhibitors of the vitamin D receptor (VDR): qHTS; Potency, µM, for inactives: max response, negative = inhibition, actives largely listed as inhibitors; VDR-SRC2-3 peptide fluorescence polarization, 2 h; AID 504847, 2011; actives 0.93% (n = 400,000); Vitamin D3 receptor (Homo sapiens), P11473; active = well fitted inhibition curve with a large enough effect; inconclusive = small, poorly fitted or top-dose-only effect, or another doubt; inactive = no such curve, though single readings can be large or run the other way; also: series mostly up to about 120 µM
Target sequence (P11473 whole entry, looked up): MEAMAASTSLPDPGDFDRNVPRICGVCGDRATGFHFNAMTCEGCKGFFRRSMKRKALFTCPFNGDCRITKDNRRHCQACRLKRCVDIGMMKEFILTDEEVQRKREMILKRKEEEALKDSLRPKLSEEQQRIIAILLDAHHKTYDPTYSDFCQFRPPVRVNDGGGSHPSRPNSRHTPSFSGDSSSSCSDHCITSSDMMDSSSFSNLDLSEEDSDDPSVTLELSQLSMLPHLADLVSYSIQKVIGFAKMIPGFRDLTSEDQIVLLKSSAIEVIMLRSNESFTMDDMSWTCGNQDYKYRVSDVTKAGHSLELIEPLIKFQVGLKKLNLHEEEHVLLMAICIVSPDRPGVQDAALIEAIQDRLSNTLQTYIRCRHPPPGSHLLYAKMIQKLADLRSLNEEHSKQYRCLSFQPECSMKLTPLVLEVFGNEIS
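Measured by FP: displacement of SRC2-3 coactivator peptide from VDR by library compounds, following a two-hour ambient incubation.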
* = called active by the depositor; ? = inconclusive; & = joins results of further samples; [ ] = dose if it differs, or a comment. % is scaled to controls: 0 for no effect and ±100 for the full control effect; potency is read from the fitted curve at half-maximal effect. Not all compounds are listed; rates above refer to the full screens.

no.	Molecule	VDR inhibitor
1	COc1ccccc1C1(CC(=O)N2CCCCC2)CCOC(C(C)C)C1 (centres undefined)	7.8%
2	Cc1ccc(N2CC(C(N)=O)CC2=O)cc1 (centres undefined)	-6.2%
3	CCOC(=O)C1CCCN(Cc2nc(CC3CC3)no2)C1 (centres undefined)	0.2%
4	COc1cccc(CN2CCCC(C(=O)Nc3ccc(-c4cscn4)cc3)C2)c1 (centres undefined)	-23.2%
5	O=C(c1cc(-c2ccco2)nc2ccccc12)N(Cc1nnc(-c2ccc(Cl)cc2)o1)C1CC1	-14.0%
6	COc1ccc(-c2csc3nc(-c4ccc(Cl)cc4)oc(=O)c23)cc1	-8.3%
7	CCCN(CCC)C(=O)Cc1coc2ccc3ccccc3c12	-9.5%
8	COc1ccc(NC2=CC(=O)N(C)C2=O)cc1	-20.4%
9	c1cncc(C(c2nnnn2C2CCCC2)N2CCCC2)c1 (centres undefined)	-0.3%
10	O=C(Nc1cc(C(F)(F)F)ccc1N1CCOCC1)c1ccc(F)cc1	19.7%
11	CCN1CCN(Cc2ccc(NC(=O)c3cc(NC(=O)N4CCNC4=O)cc(OC)c3)cc2C(F)(F)F)CC1	1.2%
12	COc1ccc(Cc2nnc(-c3ccccc3)o2)cc1	0.0%
13	Cc1ccc(NC(=O)CCN2CCN(C/C=C/c3ccccc3)CC2)cc1C	-7.1%
14	COC(=O)c1c(NC(=S)NN2CCN(C)CC2)sc2c1CCC(C)C2 (centres undefined)	3.8%
15	COc1ccccc1C/C(N)=N/OC(=O)COc1cccc(C)c1	-12.1%
16	CCOc1ccc(-c2c(C)nn3c(C)c(C(=O)Nc4cccc(Cl)c4C)cnc23)cc1OCC	10.2%
17	CCN(CC)Cc1cc(C(C)=O)ccc1O	4.5%
18	CC1=C(c2ccc(C(C)C)cc2)S(=O)(=O)N=C1N1CCC(C(=O)Nc2ccc(C)cc2)CC1	3.4%
19	O=C1OCCC1Sc1nnc(-c2ccccc2)o1 (centres undefined)	0.4%
20	CCCNC(=O)NC(=O)c1cnccc1C(F)(F)F	2.9%
21	Cc1cc(O)c(C(C)C)cc1Cl	?
22	COc1cc(/C=N/N=C2/SCC(=O)N2c2ccc(O)cc2)ccc1O	17.8µM*
23	CCCC(=O)Nc1nnc(SCc2cc(=O)n3ccccc3n2)s1	6.3%
24	COc1ccc(NC(=O)CSc2nnc(Cc3ccc(C)cc3)c(=O)n2N)cc1	-0.8%
25	CC(=O)N1c2ccc(S(=O)(=O)NCCc3ccc(S(N)(=O)=O)cc3)cc2CC1C (centres undefined)	-5.7%
26	CC(C)C(NS(=O)(=O)c1ccccc1)C(=O)N1CCCCCC1 (centres undefined)	-2.6%
27	Cc1ccc(NC2=NC(=S)N(CC#N)C23CCCCC3)cc1	-6.9%
28	CCOc1ccc(C2CC(c3ccc(CC)cc3)n3nc(N)nc3N2)cc1 (centres undefined)	-20.4%
29	O=C(Nn1cnnc1)c1ccc(OC(F)(F)C(F)C(F)(F)F)cc1 (centres undefined)	17.5%
30	Cc1ccc(C(O)(C(=O)NNc2ccc3ccccc3n2)c2ccc(C)cc2)cc1	14.2%&2.2%

no.	Molecule	VDR inhibitor
31	Cc1ccccc1N(CC(=O)NCCc1ccccc1)C(=O)c1csnn1	7.5%
32	O=C(NN1C(=O)C2C3C=CC(C4CC34)C2C1=O)c1ccccc1Cl (centres undefined)	27.8%
33	CCOC(=O)Cn1c(=O)c2c(nc(Br)n2CC(=O)OCC)n(C)c1=O	-21.8%
34	COC(=O)/C=C/COc1ccccc1[N+](=O)[O-]	?
35	COc1cccc(C(=O)Nc2ccc(NC(=O)C3CC3)nc2)c1	-7.1%
36	O=C(NC1CCCCC1)c1cc([N+](=O)[O-])[nH]n1	-6.0%
37	O=c1c(Cc2c(F)cccc2Cl)c(O)ccn1CCCN1CCOCC1	3.6%
38	O=C(CSc1nnc(NC2CC2)s1)NN1C(=O)NC2(CCCCC2)C1=O	-29.3%
39	COc1ccc(C)cc1S(=O)(=O)NCCC1=CCCCC1	-13.3%
40	O=C(CCc1nnc(Cc2cccc(C(F)(F)F)c2)o1)NCCc1ccccc1F	-16.9%
41	CCc1ccc(NC(=O)N[C@H](C(=O)O)C(C)CC)cc1 (some centres undefined)	2.7%
42	Cc1ccc(NC(=O)Cn2cnc3c(OCc4ccccc4)ncnc32)cc1C	-5.1%
43	O=C(Nc1cc(C(F)(F)F)ccc1-n1cncn1)c1ccc(Br)cc1	17.1%
44	COCCCNC(=S)NC1CC2CCC(C1)N2Cc1ccccc1 (centres undefined)	6.2%
45	COc1ccccc1NS(=O)(=O)c1cc(C(=O)NCc2cccnc2)ccc1C	-1.4%
46	COc1cccc(NC(=O)COc2ncnc3sc(C)c(C)c23)c1	-5.8%
47	C(#CCN1CCCC1)CC(c1ccccc1)c1ccccc1	9.2%
48	Cc1ccc(Cn2c(=O)c3c(nc4n3CCN4c3cc(C)cc(C)c3)n(C)c2=O)cc1	12.4%
49	Cc1noc(C)c1COc1cccc(C(=O)NCCc2c[nH]c3ccccc23)c1	3.2%
50	Cc1nn(-c2ccccc2)c(N)c1C1(O)C(=O)Nc2ccc([N+](=O)[O-])cc21 (centres undefined)	8.9%
51	COc1ccc(N2C(=O)CC(N3CCN(c4ccc(C(=O)c5cccnc5)cc4)CC3)C2=O)cc1 (centres undefined)	1.6%
52	Cc1cnc(CNC(=O)c2ccc3oc(Cc4ccccc4)nc3c2)[nH]1	-0.1%
53	COc1ccc(C2C(C(=O)c3sc(C)nc3C)=C(O)C(=O)N2CCCn2ccnc2)cc1 (centres undefined)	4.5%
54	O=C(Nc1cccc(S(=O)(=O)N2CCCC2)c1)c1ccncc1	-2.3%
55	COc1cccc(S(=O)(=O)NCc2ccc(C(=O)N3CCN(Cc4ccccc4)CC3)cc2)c1	9.6%
56	C/C(=N\NC(=O)C(=O)Nc1ccc(C)cc1)c1ccncc1	-5.5%
57	CC(C)NC(=S)NN(c1ccccc1)c1ccccc1	-1.0%
58	CCOc1c(Nc2cccc(Cl)c2)c(=O)c1=O	-2.8%
59	Cc1cc(=O)oc2cc(OC(C)C(=O)NCC3CCC(C(=O)O)CC3)c(Cl)cc12 (centres undefined)	-6.9%
60	COC(=O)c1cc(OC)c(OC)cc1NC(=S)NC(=O)c1ccco1	-3.7%

Reformatted as labelled records: two of the compounds above.
21: Cc1cc(O)c(C(C)C)cc1Cl
  VDR inhibitor: ?
22: COc1cc(/C=N/N=C2/SCC(=O)N2c2ccc(O)cc2)ccc1O
  VDR inhibitor: 17.8µM*

Continuation.
no.	Molecule	VDR inhibitor
61	CCN(CC(=O)Nc1ccc2c(c1)OC(F)(F)O2)Cc1nc2ccccc2c(=O)[nH]1	7.6%
62	COc1cc(O)ccc1/C=N/NC(=O)c1ccc([N+](=O)[O-])cc1	6.1%
63	O=C1[C@H](Cc2ccccc2)NCCCC[C@@H](c2ccc(Cl)cc2)N1Cc1ccc(Cl)cc1	10.6%
64	COc1ccc(C(=O)C[n+]2ccc3c(c2)nnn3-c2ccccc2)cc1	10.5%
65	O=C(/C=C/c1ccc(Cl)cc1Cl)N1CCc2ccccc21	-14.8%
66	Cc1cc(C(=O)O)ccc1[N+](=O)[O-]	-0.1%
67	CCOC(=O)N1CCOCCOCCN(C(=O)OCC)CCOCC1	-6.2%
68	O=c1c2c(nc3c(-c4cccc(Br)c4)c[nH]n13)CCCC2	36.6%
69	Cc1ccc(Nc2c(-c3ccsc3)nc3cccc(C)n23)cc1	-11.0%&-8.9%
70	CC(C)(C)CN1CCNC(=O)C1CC(=O)NCCc1ccccc1F (centres undefined)	-4.3%
71	CC(=O)NCc1nc2ccccc2n1Cc1ccccc1C	-3.5%
72	CCOc1ccc(NC(=O)CN(C)S(=O)(=O)c2cccs2)cc1	-4.8%
73	COc1ccc(NC2CCCN(C(=O)COc3ccc(Cl)cc3C)C2)cc1OC (centres undefined)	-22.6%
74	CCOC(=O)c1sc(Nc2ccc(OCC)cc2)nc1C	-3.9%
75	COC(=O)c1ccc(NC(=O)CN2C(=O)CC(c3ccccc3)Sc3ccccc32)cc1 (centres undefined)	7.0%
76	O=c1cc(CN2CC(O)Cc3ccc4ccccc4c32)nc2sccn12 (centres undefined)	-2.4%
77	COc1cc(/C=N/n2cnnc2-n2nc(C)cc2C)cc([N+](=O)[O-])c1O	-25.6%
78	COC(=O)CCC[C@H]1CC2(C[C@H](CCCO[Si](C)(C)C(C)(C)C)N1C(=O)OC(C)(C)C)OCCO2	-15.9%
79	COc1ccc(C2CC(c3cccs3)=NN2C(=O)CCl)cc1OC (centres undefined)	-8.4%
80	CCC(=O)c1c[nH]c(C(=O)NCc2cccc(C(F)(F)F)c2)c1	1.9%
81	CC(=O)N1CCC(C(=O)OCc2ccccc2F)(c2ccccc2)CC1	-9.9%
82	CCCCCn1c(CCNC(=O)c2cccs2)nc2ccccc21	-6.6%
83	CCC(=O)N1CCN(c2nc3c(C)cccc3s2)CC1	10.6%
84	CC(=O)Nc1ccc(NC(=O)C(C)Sc2nc3ccccc3c(=O)n2CC2CCCO2)cc1 (centres undefined)	2.2%
85	CCNc1nc(NCC)nc(Oc2ccc(OCC)nn2)n1	-4.1%
86	C=C(CCO)C1=CCN(S(=O)C(C)(C)C)[C@H]1CCO (some centres undefined)	-2.6%
87	CCOc1ccc2nc(N3CCCC(C(=O)Nc4cc(Cl)c(OC)cc4OC)C3)sc2c1 (centres undefined)	9.0%
88	CCC(CO)Oc1cc(NCc2ccc(F)cc2)c2ncn(C(C)C)c2c1 (centres undefined)	-8.9%
89	O=C(Nc1cc2c3c(c1)CC(=O)N3CCC2)c1ccco1	-1.9%
90	COc1ccc(N(Cc2cc(=O)[nH]c3ccccc23)C(=O)CCl)cc1	?

no.	Molecule	VDR inhibitor
91	COCCCNC(=O)c1cn(C)c(=O)c2c1c1ccccc1n2C	-9.5%
92	O=C(COC(=O)C1CCC(=O)N1)Nc1cccc([N+](=O)[O-])c1 (centres undefined)	31.5%[activator]
93	O=C(CN1C(=O)S/C(=C\c2ccc(Cl)cc2)C1=O)NC1C=CS(=O)(=O)C1 (centres undefined)	?
94	COc1cccc(C(=O)Nc2ccccc2C(=O)NCC2CCCO2)c1 (centres undefined)	18.4%
95	Nn1c(SCC(=O)Nc2ccccc2C(F)(F)F)nncc1=O	-11.4%
96	O=C(c1cnccn1)N(Cc1cccs1)C1(C(=O)NC2CCCCC2)CCCCC1	0.5%
97	Cc1cc(C)cc(OCC(=O)NNC(=O)c2cc3ccccc3oc2=O)c1	-11.6%
98	COc1ccc(NC(=O)c2ccc(NC(=O)C3COc4ccccc4O3)cc2)c(OC)c1 (centres undefined)	-7.6%
99	O=C(NCc1ccccc1)C(c1cccs1)N(Cc1cccs1)C(=O)c1cnccn1 (centres undefined)	-11.8%
100	CCOCCCN1CN(S(=O)(=O)c2ccc(Cl)cc2)c2nc3ccccc3nc21	7.8%
101	Cc1c(C(=O)NC(=S)Nc2ccccc2N2CCCC2)cccc1[N+](=O)[O-]	-9.1%
102	COc1cc(NC(=O)c2cc3c(=O)oc4ccc(C)cc4c3s2)cc(OC)c1OC	-8.0%
103	CCCN(Cc1cc2cc(C)ccc2[nH]c1=O)C(=O)c1cccc(OC)c1	-14.1%
104	COC(=O)Cn1c(SCc2ccccc2)nc2ccccc21	-9.4%
105	COc1ccc(OCC(=O)N(Cc2sccc2C)C2CCS(=O)(=O)C2)cc1 (centres undefined)	-1.5%&5.5%
106	Cc1ccc(C(=O)NCC(=O)OC(C)C(=O)NC2CCCCC2C)cc1C (centres undefined)	3.0%
107	CCN(CC)CCN(C(=O)c1ccco1)c1nc2cc(C)cc(C)c2s1	-4.1%
108	Cc1cc2oc(C(=O)NCc3ccc(S(N)(=O)=O)cc3)c(C)c2cc1C	-12.7%
109	NS(=O)(=O)c1cc2c(cc1C(F)(F)F)NCNS2(=O)=O	13.2%&-1.1%
110	CCCN(CCC)C(=O)Cc1ccc(F)cc1	-7.6%
111	COc1cnc(SC)nc1Nc1ccc(C#N)cc1	-12.6%
112	COc1ccccc1NC(=O)Cn1cnc2c(nnn2-c2ccc(C)cc2)c1=O	-1.2%
113	Cc1ccc(NC(=O)CN2C(=O)CCc3cc(S(=O)(=O)N4CCOCC4)ccc32)cc1N(C)C	2.1%
114	Cc1ccccc1OCC(O)Cn1c(Br)nc2c1c(=O)[nH]c(=O)n2C (centres undefined)	-3.4%
115	COc1ccc2nc(C)cc(N/N=C/c3ccc(F)cc3)c2c1	17.7%
116	CCCC(=O)N(Cc1cc(=O)[nH]c2ccccc12)c1ccccc1	4.8%
117	Cc1c(CC=C(Cl)Cl)c(=O)[nH]c2c(C)cccc12	-9.8%
118	CCC1(c2ccccc2)NC(=O)N(CC(=O)N(C)CC(=O)Nc2c(C)cccc2C)C1=O (centres undefined)	11.8%
119	CCCCN(Cc1ccccc1)S(=O)(=O)c1cc(Br)cc2c1N(C(C)=O)C(C)C2 (centres undefined)	3.7%
120	O=C(c1ccccc1)N1CCN(C(=O)c2ccc3c(c2)OCO3)CC1	6.1%

no.	Molecule	VDR inhibitor
121	CC(CC(=O)NC1CCCCC1)S(=O)(=O)c1ccc2c(c1)CCN2C(=O)C1CC1 (centres undefined)	-2.6%
122	O=C(CCNS(=O)(=O)c1ccc(Br)cc1)NCc1ccc(F)cc1	-5.5%
123	CCC1(C)NC(=O)N(/N=C/c2ccc(C)s2)C1=O (centres undefined)	14.3%
124	COc1ccc2oc(C(=O)OCC(=O)Nc3cc(S(=O)(=O)N4CCOCC4)ccc3C)c(C)c2c1	3.7%
125	Nc1ccccc1C(=O)/C=C/c1ccccc1	-6.9%
126	COc1ccccc1C(=O)Nc1cccc(NC(C)=O)c1	-5.4%
127	COc1cccc(CN(C)C(=O)CSCC(=O)Nc2ccc(C)cc2)c1OC	-6.8%
